# Vaccinia stage = blocks a specific stage of Vaccinia orthopoxvirus infection, primary screen, cell-based, single point; Vaccinia-infected cells, mCherry/Venus stage reporter fluorescence; hits give low values; some inactives read as strong as hits; activity change (mCherry), % (test concentration not listed); actives 0.01% (n = 89,000);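 active means mCherry past -33% and 40 or more points under the early reporter, replicates agreeing; inconclusive means past -33% without that gap or agreement; tested in A549 cells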;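 further: scaled between vehicle wells and reference inhibitor wells; 23 nL library stock went into each well; one replicate is shown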
# Vaccinia stage Venus = recorded beside Vaccinia stage, whose call it bears; activity change (Venus), %; measured here: Venus reporter, other viral stage;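 negative = less Venus signal; first of two replicates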
# Starred values were filed as active, the others as inactive; u = inconclusive; x = not tested or not shown. An excerpt (hit frequency here may not be typical).
SMILES,Vaccinia stage,Vaccinia stage Venus
COc1ccc(S(=O)(=O)Nc2ccc3c(c2)C(=O)N([C@@H](C)CO)C[C@H](C)[C@@H](CN(C)C(=O)Nc2ccccc2)O3)cc1,1,10
O=C(C[C@@H]1C=C[C@H](NC(=O)Cc2ccccn2)[C@H](CO)O1)NCCCN1CCOCC1,1,14
O=C(c1cnccn1)N1CC(=O)N2[C@H](C1)[C@H](c1ccc(C#CC3CC3)cc1)[C@@H]2CO,3,0
N#C[C@@H]1[C@H](c2ccccc2)[C@@H](CO)N1C(=O)Cc1ccccn1,6,0
CNC[C@@H]1OCCCC[C@H](C)Oc2ccc(NC(=O)Nc3ccc(OC)cc3)cc2C(=O)N([C@@H](C)CO)C[C@@H]1C,0,-1
C[C@@H]1CN([C@@H](C)CO)C(=O)c2cccc(NC(=O)Nc3ccc(C(F)(F)F)cc3)c2O[C@@H]1CN(C)C(=O)Nc1cccc2ccccc12,-28,-31
C[C@H](CO)N1C[C@H](C)[C@@H](CN(C)C(=O)Nc2cccc3ccccc23)OCCCC[C@H](C)Oc2ccc(NS(=O)(=O)c3ccc(F)cc3)cc2C1=O,10,6
CO[C@@H]1CN(C)C(=O)c2ccc(NS(=O)(=O)c3cn(C)cn3)cc2OC[C@@H](C)N(CCC(F)(F)F)C[C@H]1C,12,7
CCCC#Cc1ccc([C@H]2[C@@H](CO)N(C(=O)C3CCOCC3)[C@H]2C#N)cc1,-17,-15
C[C@@H]1CCCCO[C@H](CN(C)C(=O)Nc2ccc(C(F)(F)F)cc2)[C@H](C)CN([C@H](C)CO)C(=O)c2cc(NC(=O)c3ccccc3)ccc2O1,7,10
Cc1ccc(S(=O)(=O)N(C)C[C@H]2Oc3ccc(NC(=O)Nc4c(C)noc4C)cc3C(=O)N([C@H](C)CO)C[C@@H]2C)cc1,9,5
C[C@@H]1CN([C@H](C)CO)C(=O)c2cc(-c3ccc(F)cc3)cnc2O[C@@H]1CN(C)Cc1ccc(C(=O)O)cc1,18,9
C[C@H](CO)N1C[C@H](C)[C@H](CN(C)C(=O)c2ccncc2)OCCCC[C@H](C)Oc2ccc(NS(=O)(=O)c3cn(C)cn3)cc2C1=O,12,5
COCC#Cc1ccc2c(c1)O[C@@H](CN(C)C(=O)C1CCC1)[C@H](C)CN([C@@H](C)CO)S2(=O)=O,2,2
O=C(C[C@H]1CC[C@H](NC(=O)c2ccc3c(c2)OCO3)[C@@H](CO)O1)NCc1ccc(Oc2ccccc2)cc1,-25,-16
CC=Cc1ccc2n(c1=O)C[C@@H]1[C@@H](CO)[C@H](C(=O)NCCCN3CCOCC3)N(C)[C@H]21 (mixture of isomers),8,5
O=C(O)C[C@H]1CC[C@@H](NC(=O)Nc2ccccc2)[C@H](CO)O1,-3,-1
Cc1ccccc1S(=O)(=O)N1[C@@H]2c3ccc(-c4cccnc4)c(=O)n3C[C@H]1[C@H](CO)[C@H]2C(=O)O,-2,-1
CS(=O)(=O)Nc1ccc2c(c1)[C@H]1C[C@H](CC(=O)NCc3cccc(F)c3)O[C@@H](CO)[C@H]1O2,17,6
Cc1noc(C)c1S(=O)(=O)Nc1ccc2c(c1)C(=O)N([C@H](C)CO)C[C@@H](C)[C@@H](CN(C)CC1CC1)O2,0,0
C[C@H](CO)N1C[C@H](C)[C@@H](CN(C)C(=O)CN(C)C)Oc2cc(-c3ccncc3)ccc2S1(=O)=O,5,1
Cc1noc(C)c1NC(=O)N(C)C[C@H]1Oc2ccc(NC(=O)C3CCCCC3)cc2C(=O)N([C@H](C)CO)C[C@H]1C,8,14
Cc1ccccc1S(=O)(=O)N1[C@@H]2CNC[C@H]1C2c1ccc(-c2cccnc2)cc1 (stereo not given in full),1,5
COc1ccc(CN(C)C[C@H]2Oc3ccc(NC(=O)C4CCCCC4)cc3C(=O)N([C@H](C)CO)C[C@@H]2C)cc1,2,-17
CNC[C@@H]1Oc2ccc(NC(=O)Nc3ccccc3)cc2CC(=O)N([C@H](C)CO)C[C@H]1C,25,7
COc1ccc(S(=O)(=O)N(C)C[C@@H]2Oc3ccc(NC(=O)CCC(F)(F)F)cc3CC(=O)N([C@@H](C)CO)C[C@@H]2C)cc1,-7,-9
COc1ccc(-c2ccc3c(c2)[C@H]2[C@H](CCN2C(=O)Cc2cccnc2)[C@@H](CO)N3C)cc1,5,-19
COc1ccc(S(=O)(=O)Nc2ccc3c(c2)C(=O)N([C@@H](C)CO)C[C@@H](C)[C@@H](CN(C)C(=O)c2ccncc2)OCCCC[C@H](C)O3)cc1,21,13
CCCNC(=O)N1[C@@H](CO)[C@H](c2ccccc2)C12CN(C(=O)C1CCCCC1)C2,5,3
C[C@H](CO)N1C[C@H](C)[C@H](CN(C)Cc2ccc3c(c2)OCO3)Oc2ccc(NC(=O)Nc3ccccc3)cc2C1=O,-8,-7
C[C@@H]1CN([C@@H](C)CO)C(=O)c2c(c3ccccc3n2C)-c2ccccc2CO[C@@H]1CN(C)S(=O)(=O)c1cn(C)cn1,12,-1
COc1ccccc1S(=O)(=O)N[C@@H]1CC[C@H](CCNC(=O)C2CCC2)O[C@@H]1CO,11,5
CCCC#Cc1ccc2c(c1)O[C@@H](CN(C)Cc1ccc3c(c1)OCO3)[C@H](C)CN([C@@H](C)CO)S2(=O)=O,u,x
CC(C)NC(=O)Nc1ccc2c(c1)C(=O)N([C@H](C)CO)C[C@@H](C)[C@H](CN(C)C(=O)CCC(F)(F)F)OCCCC[C@@H](C)O2,-4,-4
COc1cccc(NC(=O)N[C@H]2C=C[C@@H](CC(=O)N3CCN(C)CC3)O[C@H]2CO)c1,3,-7
O=C(Nc1ccccc1F)N1CCCCN2[C@H](C1)[C@@H](c1ccc(C#Cc3cccnc3)cc1)[C@@H]2CO,u,x
C[C@H]1CN([C@@H](C)CO)C(=O)c2cc(NC(=O)Cn3cnnn3)ccc2O[C@H]1CN(C)C(=O)NC1CCCCC1,7,5
COCCNC(=O)[C@H]1[C@H](CO)[C@H]2Cn3c(cccc3=O)[C@@H]1N2S(=O)(=O)c1ccccc1C,2,-1
CNC(=O)C[C@@H]1CC[C@H]2[C@H](COc3ccc(NC(=O)Nc4cccc(Cl)c4)cc3C(=O)N2C)O1,-9,-6
C[C@@H]1CCCCO[C@@H](CN(C)S(=O)(=O)c2ccc(Cl)cc2)[C@@H](C)CN([C@@H](C)CO)C(=O)c2cc(NC(=O)Nc3cccc4ccccc34)ccc2O1,26,17
CN1C(=O)c2cc(NC(=O)Nc3ccccc3F)ccc2OC[C@@H]2O[C@@H](CC(=O)NCCc3ccncc3)CC[C@@H]21,6,5
O=C(c1ccccn1)N1CC2(C1)[C@@H](c1ccccc1)[C@H](CO)N2C(=O)C1CCC1,11,16
Cc1ccc(S(=O)(=O)Nc2ccc3c(c2)C(=O)N([C@@H](C)CO)C[C@H](C)[C@@H](CN(C)C(=O)Nc2c(C)noc2C)OCCCC[C@@H](C)O3)cc1,-2,7
C[C@H]1CN([C@@H](C)CO)C(=O)c2cc(-c3cccnc3)cnc2O[C@H]1CN(C)C(=O)Nc1ccc(F)cc1,25,7
C[C@@H]1CN([C@H](C)CO)C(=O)Cc2cc(NS(=O)(=O)c3ccc(F)cc3)ccc2O[C@@H]1CN(C)Cc1ccc(Oc2ccccc2)cc1,u,x
O=C(Cc1ccccn1)NCC[C@H]1CC[C@@H](NC(=O)Nc2ccc(F)cc2)[C@H](CO)O1,-6,1
Cc1cccc(-c2ccc(C3[C@@H]4CN(C(=O)Nc5ccc(F)cc5)C[C@H]3N4)cc2)c1 (stereo not given in full),u,x
C[C@@H]1CN([C@H](C)CO)C(=O)c2cc(C#C[C@@H](C)O)cnc2O[C@@H]1CN(C)C(=O)Cc1ccncc1,26,23
CN1c2ccc(-c3ccccc3F)cc2[C@H]2[C@H](CCN2C(=O)CN2CCOCC2)[C@@H]1CO,1,-9
Cc1cccc(S(=O)(=O)N2CCCCN3[C@H](CO)[C@H](c4ccc(C#C[C@@H](C)O)cc4)[C@@H]3C2)c1,-23,-27
COc1ccc(NC(=O)N(C)C[C@@H]2Oc3cc(-c4cccc(C(=O)N(C)C)c4)ccc3S(=O)(=O)N([C@@H](C)CO)C[C@@H]2C)cc1,-6,-12
CC(C)NC(=O)N(C)C[C@@H]1OCCCC[C@@H](C)Oc2ccc(NS(=O)(=O)c3ccccc3)cc2C(=O)N([C@H](C)CO)C[C@H]1C,4,8
C[C@@H]1CN([C@H](C)CO)C(=O)c2cccc(NS(=O)(=O)c3ccc(F)cc3)c2O[C@H]1CN(C)C(=O)NC1CCCCC1,11,13
C[C@@H]1CN([C@@H](C)CO)C(=O)c2cc(NC(=O)Cc3ccccc3)ccc2O[C@H]1CN(C)S(=O)(=O)c1ccc(F)cc1,14,11
CCCNC(=O)C[C@H]1CC[C@H]2[C@@H](COC[C@@H](O)CN2C(=O)Nc2c(C)noc2C)O1,-1,17
C[C@@H]1CN([C@@H](C)CO)S(=O)(=O)c2ccc(Br)cc2O[C@H]1CN(C)C(=O)c1ccccc1F,6,-4
C[C@H]1CN([C@@H](C)CO)C(=O)c2cc(C3=CCCC3)cnc2O[C@H]1CN(C)C(=O)Nc1cccc(F)c1,-8,-3
N#Cc1cccc(-c2ccc3c(c2)[C@H]2[C@H](CCN2C(=O)c2ccc4c(c2)OCO4)[C@@H](CO)N3)c1,-17,-14
CCS(=O)(=O)N[C@@H]1CC[C@@H](CC(=O)NCc2ccc(Cl)cc2)O[C@@H]1CO,-2,5
C/C=C/c1ccc([C@@H]2[C@@H](C#N)N(C(=O)c3cccnc3)[C@@H]2CO)cc1,16,9

# Shown tab-delimited: 10 of the compounds above.
SMILES	Vaccinia stage	Vaccinia stage Venus
CN1C(=O)c2cc(NC(=O)Nc3ccccc3F)ccc2OC[C@@H]2O[C@@H](CC(=O)NCCc3ccncc3)CC[C@@H]21	6	5
O=C(c1ccccn1)N1CC2(C1)[C@@H](c1ccccc1)[C@H](CO)N2C(=O)C1CCC1	11	16
Cc1ccc(S(=O)(=O)Nc2ccc3c(c2)C(=O)N([C@@H](C)CO)C[C@H](C)[C@@H](CN(C)C(=O)Nc2c(C)noc2C)OCCCC[C@@H](C)O3)cc1	-2	7
C[C@H]1CN([C@@H](C)CO)C(=O)c2cc(-c3cccnc3)cnc2O[C@H]1CN(C)C(=O)Nc1ccc(F)cc1	25	7
C[C@@H]1CN([C@H](C)CO)C(=O)Cc2cc(NS(=O)(=O)c3ccc(F)cc3)ccc2O[C@@H]1CN(C)Cc1ccc(Oc2ccccc2)cc1	u	x
O=C(Cc1ccccn1)NCC[C@H]1CC[C@@H](NC(=O)Nc2ccc(F)cc2)[C@H](CO)O1	-6	1
Cc1cccc(-c2ccc(C3[C@@H]4CN(C(=O)Nc5ccc(F)cc5)C[C@H]3N4)cc2)c1 (stereo not given in full)	u	x
C[C@@H]1CN([C@H](C)CO)C(=O)c2cc(C#C[C@@H](C)O)cnc2O[C@@H]1CN(C)C(=O)Cc1ccncc1	26	23
CN1c2ccc(-c3ccccc3F)cc2[C@H]2[C@H](CCN2C(=O)CN2CCOCC2)[C@@H]1CO	1	-9
Cc1cccc(S(=O)(=O)N2CCCCN3[C@H](CO)[C@H](c4ccc(C#C[C@@H](C)O)cc4)[C@@H]3C2)c1	-23	-27

# The listing continues:
SMILES,Vaccinia stage,Vaccinia stage Venus
O=C(Cc1cccnc1)N1CC2(C1)[C@@H](c1ccccc1)[C@@H](CO)N2C(=O)C1CCCC1,18,17
O=C(NC1Cc2ccccc2C1)[C@@H]1N[C@@H]2c3ccc(C4=CCCC4)c(=O)n3C[C@@H]2[C@H]1CO,11,5
CCCNC(=O)N1CC2(CN(CC3CC3)C2)c2c(n(C)c3cc(OC)ccc23)[C@H]1CO,-15,-13
O=C(CCN1CCCCC1)NCC[C@@H]1CC[C@H](NC(=O)C2CCOCC2)[C@@H](CO)O1,11,18
C[C@@H](NC(=O)[C@H]1[C@H](CO)[C@H]2Cn3c(cccc3=O)[C@H]2N1CC1CC1)c1ccccc1,17,12
Cc1noc(C)c1S(=O)(=O)Nc1cccc2c1O[C@@H](CN(C)S(=O)(=O)c1ccccc1)[C@@H](C)CN([C@@H](C)CO)C2=O,24,32
CCNC(=O)C[C@H]1CC[C@H]2[C@@H](COc3ccc(NC(=O)Nc4c(C)noc4C)cc3C(=O)N2C)O1,5,9
C[C@H](CO)N1C[C@H](C)[C@@H](CN(C)S(=O)(=O)c2ccc(F)cc2)OCCCC[C@H](C)Oc2ccc(NS(=O)(=O)c3cccs3)cc2C1=O,u,x
C[C@H]1CN([C@@H](C)CO)C(=O)c2cc(C3=CCCC3)cnc2O[C@@H]1CN(C)C(=O)C1CCC1,0,-3
CCCC(=O)Nc1ccc2c(c1)C(=O)N(C)C[C@@H](OC)[C@H](C)CN(Cc1cc(-c3ccccc3)on1)[C@H](C)CO2,-14,-12
Cn1cnc(S(=O)(=O)N2C[C@H](O)COC[C@H]3O[C@@H](CC(=O)N4CCN(c5ccccc5)CC4)CC[C@@H]32)c1,13,14
C[C@@H]1CN([C@H](C)CO)C(=O)c2cc(/C=C/c3ccccc3)cnc2O[C@H]1CN(C)Cc1ccncc1,2,2
CC(C)NC(=O)N(C)C[C@H]1Oc2c(NS(=O)(=O)c3cn(C)cn3)cccc2C(=O)N([C@@H](C)CO)C[C@H]1C,16,11
COC(=O)c1c2oc(c1C(=O)OC)C(=O)N[C@H](Cc1ccccc1)Cn1cc(nn1)CNC(=O)[C@H](Cc1ccccc1)NC(=O)N[C@@H](CO)CC2,10,2
C[C@H]1CN([C@@H](C)CO)C(=O)c2cccc(NC(=O)CCCCCC(=O)Nc3ccccc3N)c2O[C@@H]1CN(C)C(=O)Nc1ccccc1,-6,7
CCC(=O)N1CC2(C1)[C@@H](c1ccc(-c3ccc(F)cc3)cc1)[C@@H](CO)N2S(C)(=O)=O,-4,-2
COc1ccc(NC(=O)N(C)C[C@@H]2OCCCC[C@@H](C)Oc3ccc(NC(=O)Nc4c(C)noc4C)cc3C(=O)N([C@H](C)CO)C[C@H]2C)cc1,6,-2
CO[C@@H]1CC[C@H]2CCN(C)C(=O)[C@H](C)N(C)C(=O)c3cccc(C#N)c3OC[C@@H]1O2,20,13

# Compound activity: PubChem BioAssay, Broad Institute
